Bioassay records deposited in PubChem by several laboratories.
WNV NS2B-NS3 inh: blocks West Nile virus NS2B-NS3 protease activity; P06935; WNV NS2B-NS3 protease, fluorogenic substrate Ex360/Em465; stronger effect = lower value; z-score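 (tested at a level between 10 and 100 µM)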; 65,000 compounds, 0.18% hits; AID 577;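 active = z-score at -3 or under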;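 note: score is relative to mean and spread of the compound wells of a plate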
Target sequence (P06935 1371-1501 limits assumed): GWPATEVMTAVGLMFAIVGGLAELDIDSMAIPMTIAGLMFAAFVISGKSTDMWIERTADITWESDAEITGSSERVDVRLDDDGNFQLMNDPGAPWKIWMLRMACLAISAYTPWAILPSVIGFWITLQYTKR
Target sequence (P06935 1502-1679 limits assumed): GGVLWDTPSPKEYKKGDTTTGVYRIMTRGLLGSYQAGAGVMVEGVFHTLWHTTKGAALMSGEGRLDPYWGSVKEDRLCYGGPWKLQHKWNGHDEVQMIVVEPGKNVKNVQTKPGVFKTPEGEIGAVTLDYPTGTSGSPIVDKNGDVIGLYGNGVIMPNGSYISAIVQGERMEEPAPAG
Hsc70 ATP site: small molecules displacing fluorescent ligand from Hsc70 – biochemical, fluorescence polarization, primary screen (AID 568); Hsc70 fluorescence polarization, probe displacement; higher % means a stronger effect; strong numbers were not always called active; displacement, % at 20 µM, or IC50 in µM where a hit was titrated; 83,000 tested, under 10 active;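 active = displacement above 50% without optical interference and an IC50 on retest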;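 note: ATPase domain with a fluorescein-tagged ATP probe; 0% = vehicle and 100% = excess ADP; read after one hour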
MT1-MMP promoter: MT1-MMP gene expression reporter suppression – cell-based, luciferase reporter, luminescence (AID 618); MT1-MMP promoter luciferase reporter cells, luminescence; calls from a first round at 10 µM; hits with a dose series show EC50 in µM; 87,000 compounds, 0.62% hits;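 active = over half of the reporter light lost at 10 µM or EC50 under 50 µM; inactive = the rest and hits that failed the dose series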;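 note: actives suppress MT1-MMP promoter-driven transcription so potencies describe inhibitors; HT1080 fibrosarcoma cells; overnight exposure; toxic or luciferase-blocking compounds were not removed from the actives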
Active calls of the source: *; i = inactive; / = not tested or not shown. Rows were taken by chance; about 0.8% have a hit in one of these screens.

The opening 6 entries, to show the layout:
SMILES | Hsc70 ATP site | MT1-MMP promoter | WNV NS2B-NS3 inh
CCCCn1nnnc1SCC(=O)Nc1cccc(C)n1 | -4.6% | i | 0.08
O=C(Nc1ccc(N2CCOCC2)cc1)C1CCN(S(=O)(=O)Cc2ccccc2)CC1 | 6.9% | i | 1.9
Cn1ccnc1C(O)c1ccc(OCc2ccccc2)cc1 (stereo not given) | 7.9% | i | -0.51
O=c1sc2ccccc2n1CCCOc1ccccc1 | 2.7% | i | /
Cc1cc(NS(=O)(=O)Cc2ccccc2)no1 | -1.2% | i | -0.37
O=C(CSc1ncccc1C(=O)O)NCc1ccc(F)cc1 | -2.3% | i | -1.3

The listing, previewed entries included:
SMILES | Hsc70 ATP site | MT1-MMP promoter | WNV NS2B-NS3 inh
CCCCn1nnnc1SCC(=O)Nc1cccc(C)n1 | -4.6% | i | 0.08
O=C(Nc1ccc(N2CCOCC2)cc1)C1CCN(S(=O)(=O)Cc2ccccc2)CC1 | 6.9% | i | 1.9
Cn1ccnc1C(O)c1ccc(OCc2ccccc2)cc1 (stereo not given) | 7.9% | i | -0.51
O=c1sc2ccccc2n1CCCOc1ccccc1 | 2.7% | i | /
Cc1cc(NS(=O)(=O)Cc2ccccc2)no1 | -1.2% | i | -0.37
O=C(CSc1ncccc1C(=O)O)NCc1ccc(F)cc1 | -2.3% | i | -1.3
Cc1cc(=O)n2[nH]c(-c3ccccc3)cc2n1 | 2.8% | i | 0.6
CCOCC(=O)Nc1ccc(S(=O)(=O)N2CCOCC2)cc1 | 0.2% | i | 0.51
CCSC1(SCC)N=C(N)C2(C#N)C(c3ccccc3)NC(C)=CC12C#N (stereo not given) | 2.1% | i | -1.2
Cc1ccc(SCCNC(=S)Nc2ccccc2)cc1 | -4.0% | i | /

Remaining list, next part
SMILES | Hsc70 ATP site | MT1-MMP promoter | WNV NS2B-NS3 inh
NCCCS(=O)(=O)O | -3.8% | i | /
Cc1sc2nc(SCC(N)=O)n(C)c(=O)c2c1C | 1.5% | i | /
CCOc1ccc(CCNS(=O)(=O)c2cccc3nsnc23)cc1OCC | -7.5% | i | 0.12
O=C(CCC1=NS(=O)(=O)c2ccccc2N1)NC1CCCCCCC1 | 2.8% | i | -0.07
CCOC(=O)c1cccc(NC(=O)c2cccnc2)c1 | -3.1% | i | 0.5
Fc1cccc(-c2cc3nc(-c4ccccc4)cc(N4CCC5(CC4)OCCO5)n3n2)c1 | -1.2% | i | /
Cc1c(NC(=O)C(C)N2CC(C)OC(C)C2)c(=O)n(-c2ccccc2)n1C (stereo not given) | -3.4% | i | -2.6
c1ccc2oc(Cc3ccc(Cc4nc5ccccc5o4)cc3)nc2c1 | 2.0% | i | /
NC(=O)SCC(=O)Nc1ccc(Cl)c(Cl)c1 | -3.7% | i | 0.19
CN1CCN(/C=N/c2c(C#N)cnn2Cc2ccccc2)CC1 | 0.9% | i | -0.31

Going on with the list.
SMILES | Hsc70 ATP site | MT1-MMP promoter | WNV NS2B-NS3 inh
CCN(CC)CCn1c(=S)[nH]c2ccc(Cl)cc2c1=O | 5.3% | i | 1.2
CC(C)Cn1c(CN2C(=O)c3ccccc3C2=O)nc2ccccc2c1=O | -0.8% | i | 0.09
O=C1Nc2ccccc2/C1=C/C(=O)c1cccs1 | -0.2% | i | /
CCCCCn1c(SCC2CCCO2)nc2cc(C(=O)N3CCC(C(N)=O)CC3)ccc2c1=O (stereo not given) | 5.0% | i | 0.46
Cn1cnnc1Sc1nc2c(c(=O)n(C)c(=O)n2C)n1Cc1ccccc1Cl | -0.7% | i | -0.01
O=C(c1ccco1)N1CCN(C(c2ccc(Cl)cc2)c2nnnn2CC2CCCO2)CC1 (stereo not given) | -4.8% | i | -1
Cc1ccc(N2CC(C(=O)Nc3ccccc3C(=O)NC3CCCCC3)CC2=O)cc1 (stereo not given) | 0.7% | i | /
C/[N+]([O-])=C1\Cc2ccccc2C1=O | -1.0% | i | -0.15
CCOc1ncccc1C(=O)OCc1nnc(-c2ccccc2)o1 | -2.8% | i | 1.1
O=C(OCc1cc2ccccc2[nH]c1=O)C1CCCCC1 | -5.3% | i | -1.5

Going on with the list.
SMILES | Hsc70 ATP site | MT1-MMP promoter | WNV NS2B-NS3 inh
Cc1cccc(OCC(=O)Nc2cccc(-c3nnc(-c4ccccc4)o3)c2)c1C | 5.4% | i | 0.08
CC1CCCC(NC(=O)COC(=O)CCC2CCCC2)C1C (stereo not given) | -4.2% | i | /
Cc1ccsc1C=Nc1c(C)n(C)n(-c2ccccc2)c1=O | 2.9% | i | -0.04
O=C(O)c1ccc(CSCc2ccco2)cc1 | 2.8% | i | /
CN1CCN(c2ccccc2NC(=O)c2ccc(-c3ccc(Cl)cc3Cl)o2)CC1 | -7.1% | i | /
CC(C1CC1)N(C(=O)c1ccccc1O)c1ccccc1 (stereo not given) | -11% | i | 0.41
O=C(CCC1CCCC1)Nc1ccc(Br)cn1 | -0.2% | i | -0.2
CCOC(=O)CSc1nnc(CNC(=O)c2cccs2)n1-c1cc(OC)ccc1OC | -6.2% | i | -0.66
CCOP(C)(=O)C1(C(=O)OCc2ccccc2)CC1 (stereo not given) | 2.2% | i | -0.44
CN(C)C(CNC(=O)CCCc1c[nH]c2ccccc12)c1ccco1 (stereo not given) | -1.5% | i | 0.52

(more compounds)
SMILES | Hsc70 ATP site | MT1-MMP promoter | WNV NS2B-NS3 inh
Nc1nnc(SCc2cccc(C(F)(F)F)c2)s1 | -1.6% | i | 1
CCOC(=O)N1CCC(NC(=O)c2cnn3c2NC(c2ccco2)CC3C(F)(F)F)CC1 (stereo not given) | -8.5% | i | 0.24
CCOc1ccc(-n2c(C)nc3cc(C(=O)NCCN4CCOCC4)ccc32)cc1 | -0.7% | i | /
COc1ccc(C2C(C(=O)N3CCN(C)CC3)c3ccccc3C(=O)N2C2CCCCC2)cc1 (stereo not given) | 6.3% | i | -0.06
Cn1c(SCCOc2ccccc2Cl)nnc1-c1cccs1 | -2.2% | i | /
CCOC(=O)N1CCN(CCC(=O)Nc2ccccc2OC)CC1 | -2.5% | i | /
O=S(=O)(Cc1ccccc1)N1CCN(Cc2ccccc2)CC1 | 4.9% | i | 0.33
COc1ccc(-c2nnc(SCCC(=O)O)n2-c2ccccc2)cc1OC | -2.6% | i | /
CCC(=NCCN1CCNCC1)C1=C(O)CC(C)(C)CC1=O | 4.6% | i | 0.66
c1ccc(C(Cc2nc(-c3cccnc3)no2)c2ccccc2)cc1 | 3.8% | i | -1.1

Other entries.
SMILES | Hsc70 ATP site | MT1-MMP promoter | WNV NS2B-NS3 inh
CCOC(=O)c1ccc2c(c1)C1C=CCC1C(C(=O)O)N2 (stereo not given) | 1.2% | i | -0.52
CCOc1cc(N2CCOCC2)c(OCC)cc1NC(=O)Cc1cn2ccsc2n1 | 5.8% | i | -0.06
Cc1cccc(C)c1N1CCN(S(=O)(=O)c2ccc(F)cc2)CC1 | -6.4% | i | 1.8
N#Cc1c(N)nc2c3c(sc(=N)c2c1N)NC(=O)CC3c1ccccc1Cl (stereo not given) | -5.0% | i | /
Cn1c(=O)oc2cc(S(=O)(=O)N3CCC(C(=O)N4CCN(c5ccccc5)CC4)CC3)ccc21 | 0.0% | i | 0.45
COCc1cc(=O)n2[nH]c(C)cc2n1 | 0.1% | i | -0.86
CCSc1ccccc1C(=O)Nc1cccc(OC)c1 | 0.3% | i | -0.57
O=S(=O)(Nc1nccs1)c1ccc(NS(=O)(=O)c2cccs2)cc1 | 12% | i | -0.35
Cc1nn(CC(=O)NCCN2CCOCC2)c(=O)c2ccccc12 | 3.0% | i | 1
O=C(CSc1nnc(-c2ccccn2)n1Cc1ccccc1)NC1CCCC1 | -0.6% | i | -0.99

More entries
SMILES | Hsc70 ATP site | MT1-MMP promoter | WNV NS2B-NS3 inh
CCN(CC)C(=O)CSc1nnc(CCNC(=O)OC(C)(C)C)o1 | -0.1% | i | -1.2
CCOC(=O)CC(C#N)c1c[nH]c2ccccc12 (stereo not given) | -5.3% | i | 0.67
O=c1cc[nH]c2cc(C(F)(F)F)ccc12 | 6.3% | i | -0.86
O=C1CN(C(=O)c2cnccn2)c2ccccc2N1 | 5.7% | i | -0.88
Cc1noc(C(=O)NCc2cccnc2)c1Cl | 2.3% | i | 0.51
O=C(Nc1cccc2ccccc12)c1cn(-c2ccccc2)nc1-c1cccs1 | 5.4% | i | /
C=CCn1c(SCC(=O)NCC(=O)OCC)nnc1-c1cccc(OC)c1 | -2.2% | i | -0.48
COC(=O)/C=c1\sc2n(c1=O)C(C)=CC(C)(C)N=2 | -3.2% | i | 1.4
O=C(NCCc1ccccc1)C1c2ccccc2C(=O)N1C1CC1 (stereo not given) | 0.9% | i | 0.38
CCc1nc2nc(C)cc(Nc3cccc(C(F)(F)F)c3)n2n1 | -7.4% | i | -0.66

(continued)
SMILES | Hsc70 ATP site | MT1-MMP promoter | WNV NS2B-NS3 inh
COc1cccc(CN2CCN(C(=O)c3cccs3)CC2)c1OC | 3.5% | i | -0.36
CCOC(=O)C1=C(C)OC(N)=C(C(=O)OCC)C1c1ccncc1 (stereo not given) | -2.1% | i | 0.23
O=C(CN1CCCCC1)N1CCN(C(=O)CN2CCCCC2)CC1 | 10% | i | -0.29
Oc1c(Cl)cc(Cl)cc1C=Nc1ccc2c(c1)OCCO2 | 5.4% | i | /
CN(C)S(=O)(=O)Nc1ccc(NS(=O)(=O)N(C)C)c(S(=O)(=O)c2ccccc2)c1 | -3.3% | i | 0.06
COc1ccc(-c2cc(C(F)(F)F)n3nc(C(=O)NCc4ccco4)cc3n2)cc1OC | -2.6% | i | /
CCCn1cnc2cc(NCc3cccc(OC)c3O)ccc21 | -2.1% | i | -0.55
COc1cc(/C=C2/C(=N)N3C=CSC3=NC2=O)ccc1OCCCOc1c(C)cccc1C | -5.1% | i | /
CC12CCC(C(=O)NCc3ccco3)(OC1=O)C2(C)C (stereo not given) | -2.4% | i | -0.22
O=S(=O)(c1cc(C(F)(F)F)ccc1Cl)N1CCCCCC1 | -3.0% | i | -0.08

More compounds follow:
SMILES | Hsc70 ATP site | MT1-MMP promoter | WNV NS2B-NS3 inh
COc1ccc(NC(=O)C2Cc3ccccc3C(=O)O2)cc1 (stereo not given) | 1.6% | i | -0.43
CC(C)c1c(O)nc(SCC(=O)Nc2ccc3c(c2)CCC3)[nH]c1=O | -3.6% | i | -0.68
CCc1c(C)c2ccc(OCC(=O)OC(C)C)c(C)c2oc1=O | 0.2% | i | -0.69
O=C1C(=O)N(Cc2cccnc2)C(c2ccccn2)/C1=C(/O)c1ccccc1 (stereo not given) | -7.7% | i | -0.72
CCCCC(=O)Nc1ccc(NC(=O)C2CC2)cn1 | -1.9% | i | -0.25
N#CC1=C(N)N(c2ccccc2)C(c2cccc([N+](=O)[O-])c2)C1(C#N)C#N (stereo not given) | -2.4% | i | /
O=C(NCC(=O)N(c1ccc2c(c1)OCO2)C(C(=O)NC1CCCC1)c1cccs1)c1ccco1 (stereo not given) | 1.0% | i | 0.06
Cc1ccccc1OCCCCn1cnc2ccccc21 | 2.6% | i | /
c1ccc(N2CCN(c3nc4cc5c(cc4s3)OCO5)CC2)cc1 | 2.0% | i | 0.61
COC(=O)C(C#N)C(c1cccnc1)c1c(C)[nH][nH]c1=O (stereo not given) | -1.6% | i | 0.3

New compounds follow
SMILES | Hsc70 ATP site | MT1-MMP promoter | WNV NS2B-NS3 inh
CCCCn1c(NCCO)nc2ccccc21 | 5.2% | i | -0.44
COc1cc(NC(=O)NCCN2CCN(c3ccc(Cl)cc3)CC2)ccc1C | 8.5% | i | -0.08
COc1cccc(-c2nnc3sc(-c4ccccn4)nn23)c1 | -3.7% | i | 0.26
CCCc1cc(C(N)=O)c(NC(=O)c2ccoc2C)s1 | -8.5% | i | -0.91
Cn1c(SCCCC(=O)c2ccccc2)nnc1-c1ccncc1 | 2.0% | i | 0.59
Cc1ccc(C(=O)c2oc3ccccc3c2N)cc1 | -1.2% | i | /
CN(Cc1cnn(C)c1)C(=O)C1CCCCC1C(=O)O (stereo not given) | 3.5% | i | /
Cc1c(NC(=O)Nc2cccc(Cl)c2)c(=O)n(-c2ccccc2)n1C | 11% | i | 0.24
COC(=O)CCC(NC(=O)c1cc(C)oc1C)C(=O)OC (stereo not given) | -1.4% | i | /
CCc1nnc(NC(=O)CCC(=O)N2CCN(C3CCCCC3)CC2)s1 | -0.7% | i | -0.89

(cont.)
SMILES | Hsc70 ATP site | MT1-MMP promoter | WNV NS2B-NS3 inh
COc1ccc(S(=O)(=O)N2CCOCC2)cc1Cl | -0.9% | i | /
CCN1CCN(C(=O)CCCCCn2c(=O)[nH]c3cc(C(=O)OC)ccc3c2=O)CC1 | 1.9% | i | -0.56
Cn1ccc(C(=O)OCC(=O)c2ccccc2)n1 | 0.5% | i | 0.13
Cc1ccc(-c2nc3ccccc3[nH]2)cc1NC(=O)c1ccco1 | -0.7% | i | -0.88
COc1ccc(NC(=O)CSc2nc(N3CCCCC3)nc(N3CCCCC3)n2)cc1 | 8.3% | i | /
O=C(NCCC1=CCCCC1)C1CCN(c2nc3ccccc3o2)CC1 | 3.9% | i | /
O=S(=O)(c1ccc(Br)s1)N1CCN(c2ccccc2)CC1 | -0.7% | i | 0.59
C/C(CC1CC2=C(CC1(C)C)C(C)(C)CCC2)=N\NC(N)=S (stereo not given) | 4.5% | i | /
